High-throughput results: PubChem BioAssay, several laboratories
Ecoli growth: blocks Escherichia coli growth | actives 0.21% (n = 330,000) | OD600 absorbance (concentration not given with the values) | OD600, 23 h; hits give low values;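 active = OD600 absorbance below the run mean of sample wells minus 3.6 SD, in any replicate, cut at about 0.56 in these data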;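 note: stock transfer was 300 nL into about 60 µL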
UCH37 DUB inh: human UCH37 deubiquitinating enzyme inhibition; purified proteasome/UCH37, Ub-AMC cleavage fluorescence; Q9Y5K5; inhibition, % (test concentration not listed); actives 0.33% (n = 330,000);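 active = mean of two replicates above 20%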;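 note: 0% = compound-free wells with enzyme and 100% = wells lacking proteasome; stock transfer was 100 nL into about 20 µL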
Target sequence (Q9Y5K5 whole entry, looked up): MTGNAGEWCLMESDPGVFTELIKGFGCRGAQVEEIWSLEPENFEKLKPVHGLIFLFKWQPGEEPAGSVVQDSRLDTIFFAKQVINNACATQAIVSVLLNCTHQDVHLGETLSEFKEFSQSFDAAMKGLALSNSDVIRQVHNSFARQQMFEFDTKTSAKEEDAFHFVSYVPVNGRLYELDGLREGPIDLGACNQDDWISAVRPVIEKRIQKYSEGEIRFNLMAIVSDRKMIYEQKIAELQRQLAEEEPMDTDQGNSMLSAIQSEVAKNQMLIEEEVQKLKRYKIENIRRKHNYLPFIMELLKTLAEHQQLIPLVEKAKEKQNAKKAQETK
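System: Proteasome-associated human UCH37 deubiquitinase; Input: 0.15 nM proteasome in added enzyme buffer; Also added: Ub-AMC substrate from 1 µM stock; Incubation: 30 min compound-proteasome preincubation then 25 min substrate reaction, room temperature; Detection: fluorescence, ex 355 nm, em 460 nm; Read-out: % inhibition of Ub-AMC cleavage fluorescence; Benchmarks: no-proteasome and no-compound wells.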
ALR inh: inhibitors of human sulfhydryl oxidase ALR | inhibition, % (concentration not given with the values) | AID 485317 | purified ALR, DTT oxidation, H2O2 HRP-luminol luminescence | P55789 | actives 3.8% (n = 290,000);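 active = mean and each replicate at 75% or more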;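 note: stock transfer was 7.5 nL into about 7.5 µL; 0% = neutral wells and 100% = wells with inactivated enzyme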
Target sequence (P55789 whole entry, looked up): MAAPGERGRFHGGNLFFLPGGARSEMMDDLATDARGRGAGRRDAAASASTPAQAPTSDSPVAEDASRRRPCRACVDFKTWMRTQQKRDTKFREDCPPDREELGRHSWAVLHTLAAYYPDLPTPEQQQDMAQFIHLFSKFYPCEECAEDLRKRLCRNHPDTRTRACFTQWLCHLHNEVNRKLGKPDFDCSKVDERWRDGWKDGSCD
Ecoli rRNA inh: inhibits bacterial ribosomal RNA function over humanized ribosomes; E. coli WT GFP vs humanized-ribosome RFP mutants, fluorescence, 24 h; hits give low values; DMSO median 0, no signal -100; AID 720706; GFP signal change (wild-type ribosome), % (concentration not given with the values); actives 1.6% (n = 350,000);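 active = significant combined selectivity score with lowered wild-type GFP, culture density cut under 30%, mutant RFP and density less affected; inactive = any of these conditions unmet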; note: one replicate is shown; some compounds called inactive have numbers as strong as hits
B2AR ag: activates human beta-2 adrenergic receptor causing internalization. P07550. Am2.2-beta2AR cells, FAP receptor internalization, flow cytometry; reference of the scale not given here. response, % (no concentration beside the values). actives 0.43% (n = 340,000);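 active = response above a set limit, near 3 SD of response in nonfluorescent compounds, cut at about 42% in these data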;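 note: stock transfer was 100 nL into about 11 µL; a reference agonist was the positive control; negative values mostly stem from fluorescent compounds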
Target sequence (P07550 whole entry, looked up): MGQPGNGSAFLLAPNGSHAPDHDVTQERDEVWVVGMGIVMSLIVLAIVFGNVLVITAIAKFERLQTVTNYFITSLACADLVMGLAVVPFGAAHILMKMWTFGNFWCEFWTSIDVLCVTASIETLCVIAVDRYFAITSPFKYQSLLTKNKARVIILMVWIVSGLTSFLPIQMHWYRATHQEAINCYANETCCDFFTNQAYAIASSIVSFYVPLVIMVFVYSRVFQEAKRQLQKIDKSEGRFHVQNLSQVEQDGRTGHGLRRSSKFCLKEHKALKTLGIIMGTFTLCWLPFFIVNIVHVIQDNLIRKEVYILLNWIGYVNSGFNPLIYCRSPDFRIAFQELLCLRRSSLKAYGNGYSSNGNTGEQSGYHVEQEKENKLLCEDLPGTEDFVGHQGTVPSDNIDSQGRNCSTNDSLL
HNF4A DNA FP: change in binding of human HNF4 alpha to DNA; HNF4a-FITC DNA binding, fluorescence polarization, 1 h; actives 0.3% (n = 360,000); AID 1224865; activity change, % at 10 µM; in the data active = activity change above about 30%, passing the limit was not always enough;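 note: controls were the assay level and a saturating level of protein; the project sought stronger binding though the title names inhibitors; some compounds called inactive have numbers as strong as hits; positive values seem to mean higher polarization but the record does not say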
FGF22 binding: binders of recombinant human FGF22 by thermal shift | Q9HCT0 | SYPRO orange fluorescence; percent of sucrose octasulfate shift, DMSO zero | calls only at 9.99 µM | actives 1.5% (n = 340,000) | AID 651658;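 active = melting point raised past a set limit in the mean and every replicate; three in four hits are not shown here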
Ecoli rRNA inh OD600: also measured in Ecoli rRNA inh; calls as there; OD600 change, %; measured here: OD600 growth;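 optical density of the mix in the first replicate; 0 = DMSO median and -100 = no signal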
Ecoli rRNA inh RFP: also measured in Ecoli rRNA inh; calls as there; RFP signal change, %; measured here: RFP humanized mutant strains;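 first replicate; 0 = DMSO median and -100 = no signal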
The depositor's hits bear a star; i = inactive; . = not tested or not shown.

Value order: Ecoli growth	UCH37 DUB inh	ALR inh	Ecoli rRNA inh	Ecoli rRNA inh OD600	Ecoli rRNA inh RFP	B2AR ag	HNF4A DNA FP	FGF22 binding
COc1ccc(-c2cnc(C(O)c3ccc(OC)c(F)c3)[nH]2)cc1 (stereo unspecified)
    .	.	.	-3	-8	-0.1	.	-1.4	i
COc1ccccc1N1CCN(C(=O)c2noc(C(C)C)c2[N+](=O)[O-])CC1
    0.62	2.0	17	.	.	.	5	-0.5	.
Cc1ccc(S(=O)(=O)c2c(N)n(/N=C/c3ccco3)c3nc4ccccc4nc23)cc1C
    .	.	-8	.	.	.	0	18	.
Cc1ccccc1N(C(=O)CCC(=O)Nc1ccccn1)C(C(=O)NC(C)C)c1ccc(O)cc1 (stereo unspecified)
    0.72	0.1	.	.	.	.	4	-4.2	.
O=C(CN1C(=O)S/C(=C\c2ccc(Cl)cc2)C1=O)NCCCn1ccnc1
    0.66	6.8	-13	-18	-19	-2.5	-4	2.6	i
Cc1ccc(CN2CC(C(=O)N3CCN(c4ccccc4Cl)CC3)CC2=O)cc1 (stereo unspecified)
    0.69	1.0	-3	-24	-69	0.9	-1	-0.8	i
COc1ccc(CCNC(=O)CCC(=O)NC2CCCCC2)cc1OC
    0.68	0.8	-1	11	5	1.8	1	2.2	i
CC1CCCC(C)N1C(=O)COC(=O)c1cccnc1Cl (stereo unspecified)
    0.68	3.1	-5	4	6	-1.9	8	3.2	i
CN(C)c1ccc(/C=N/NC(=O)c2ccc3c(c2)OCO3)cc1
    .	.	98*	-1	6	1.6	-2	-0.6	i
COC(=O)C1CN(C(=O)C(C)Oc2cc(C)ccc2C(C)C)c2ccccc2O1 (stereo unspecified)
    0.66	0.6	-4	-9	-3	-1.4	14	1.0	i
CCOC(=O)C1=C(C)N(CCCC(=O)O)C(=O)NC1c1ccc(Br)cc1 (stereo unspecified)
    .	-0.2	-4	-10	7	-11	.	.	i
COc1ccccc1N1CCN(C(=O)CCCn2nc(C)c([N+](=O)[O-])c2C)CC1
    0.7	-0.6	.	-10	-17	0.6	-1	-2.0	i
CCN(C(=O)CCNC(=O)Cn1cnc2ccccc2c1=O)c1ccccc1F
    0.69	-0.4	-3	7	8	-3.9	-2	-1.3	i
CC(C(=O)OCC(=O)N(C)C1(C#N)CCCCC1)N1C(=O)c2ccccc2C1=O (stereo unspecified)
    0.65	3.1	0	.	.	.	-3	4.4	i
CC1=C(C(=O)Nc2ccccc2C(F)(F)F)C(c2sccc2C)NC(=S)N1 (stereo unspecified)
    0.71	-0.2	-18	-10	-7	-4.0	2	1.4	i
Cc1cccc(NC(=O)CN2C(=S)NC(C)(C)CC2C)c1C (stereo unspecified)
    0.67	1.0	2	.	.	.	-3	-2.3	.
Nc1ccn(CCCN2CCN(Cc3cccc4ccccc34)CC2)c(=O)n1
    .	.	.	7	6	0.5	.	-1.2	i
CCOC(=O)c1ccc(N2Cc3ccccc3C2=NC(=O)c2cccc([N+](=O)[O-])c2)cc1
    0.71	5.9	5	4	5	6.1	-9	4.1	i
CCC(C)NC(=O)c1cc(-c2ccc3c(c2)OCO3)on1 (stereo unspecified)
    0.64	2.6	0	-5	6	3.0	-9	-0.8	i
CC(C)=NNc1nc2c(c(=O)n(C)c(=O)n2C)n1C
    0.66	1.4	1	9	-8	0.3	7	-1.3	i
O=C1CN(C(=O)COC(=O)Cc2ccsc2)c2ccccc2N1
    0.65	-0.1	-3	.	.	.	4	4.6	.
CCCCCCN=C1CC(C)(C)CC(=O)/C1=C(/O)CCC
    .	.	-2	.	.	.	-6	2.1	i
NS(=O)(=O)c1cccc(NC(=O)COc2ncnc3c2cnn3-c2ccccc2)c1
    0.67	1.4	-5	-20*	-1.8*	0.0*	-5	1.4	i
CN1CCc2nc(NC(=O)COc3ccc4ccccc4c3)sc2C1
    0.63	0.8	-21	-8	-3	4.0	-2	15	i
Cc1ccc(OCC(=O)OCC(=O)N2c3ccccc3CC2C)cc1C (stereo unspecified)
    0.67	0.6	.	-3	-1	1.1	-10	-3.2	i
Cc1c(Cl)ccc2c1NC(=O)[C@]21[C@@H]2C(=O)N(Cc3ccccc3)C(=O)[C@@H]2[C@@H]2CCCN21
    0.7	.	-7	.	.	.	5	10	.
CC(c1ccccc1)n1c(Cn2ncc3ccccc3c2=O)n[nH]c1=S (stereo unspecified)
    0.71	2.7	40	-9	-10	-6.5	3	2.0	i
CCCNC(=O)C(Cc1ccccc1C)NC(=O)c1ccc(C(F)(F)F)cc1 (stereo unspecified)
    0.73	-0.2	-1	3	4	-0.4	-2	0.1	i
CCCN(CC(=O)Nc1cc(Cl)ccc1Cl)C(=O)/C=C/c1cc(OC)ccc1OC
    0.77	-349	2	1	0	8.9	-4	0.5	i
COc1ccc(-c2cc(C(F)F)n3ncc(C(=O)N4CCN(C)CC4)c3n2)cc1
    0.73	-175	-14	.	.	.	-4	-1.4	.

The last 2 records of the section before are carried over, then new ones follow.
Value order: Ecoli growth	UCH37 DUB inh	ALR inh	Ecoli rRNA inh	Ecoli rRNA inh OD600	Ecoli rRNA inh RFP	B2AR ag	HNF4A DNA FP	FGF22 binding
CCCN(CC(=O)Nc1cc(Cl)ccc1Cl)C(=O)/C=C/c1cc(OC)ccc1OC
    0.77	-349	2	1	0	8.9	-4	0.5	i
COc1ccc(-c2cc(C(F)F)n3ncc(C(=O)N4CCN(C)CC4)c3n2)cc1
    0.73	-175	-14	.	.	.	-4	-1.4	.
O=C(O)CN(c1cccc(C(F)(F)F)c1)S(=O)(=O)c1ccccc1
    0.68	2.4	-2	18	10	-4.6	5	1.4	i
COC(=O)c1cc(OC)c(OC)cc1NC(=S)N1CCN(c2ccccn2)CC1
    0.69	3.4	-27	-1	-18	0.4	1	-2.2	i
CN(CC(=O)Nc1ccc(F)c(F)c1)S(=O)(=O)c1cccc2cccnc12
    0.7	-0.1	-5	-7	-26	3.5	-3	2.9	i
O=C(N/C(=C/c1cccnc1)C(=O)N1CCOCC1)c1ccccc1F
    0.71	5.4	2	8	-2	0.9	1	-2.9	i
COc1ccc(C(O)c2ncc(-c3ccccc3OC)[nH]2)cc1 (stereo unspecified)
    .	.	.	5	4	1.0	.	4.1	i
OC(CNCc1ccccc1)COCc1ccc(Cl)cc1 (stereo unspecified)
    0.69	3.6	0	2	3	-1.2	4	2.3	.
CCC1CO/C(=C(\C(Cl)=C(Cl)Cl)[N+](=O)[O-])N1 (stereo unspecified)
    0.67	6.8	6	7	1	0.8	12	1.4	i
COc1ccccc1N1CCN(C2CCCN(C(=O)c3ccnc4ccc(C)cc34)C2)CC1 (stereo unspecified)
    .	.	29	7	-4	4.2	3	-3.5	i
COc1cc(OC)cc(C(=O)NN2CCOCC2)c1
    0.68	3.0	-1	4	7	-1.2	4	-5.8	i
Cc1ccc(NC2=C(CC(=O)O)C(c3ccccc3)N(c3ccc(C)cc3)C2=O)cc1 (stereo unspecified)
    .	-1.2	16	10	10	0.3	6	-3.1	i
Nc1nc(-c2ccccc2)nc2nonc12
    .	.	.	1	-3	-5.7	.	-3.3	i
COc1cccc(C(=O)NNS(=O)(=O)c2ccc(C)cc2)c1
    0.72	0.3	.	4	8	-0.3	2	0.2	i
O=C(COc1cccc(F)c1)N[C@@H](Cc1ccccc1)c1nc2ccccc2[nH]1
    0.71	-2.0	5	-19	-15	-0.4	3	1.9	i
c1ccc(-c2ccc3c(c2)c2c4n3CCN=C4CCC2)cc1
    0.63	5.1	-23	.	.	.	-2	5.8	.
O=C(O)c1ccc(CSCc2ccccc2)o1
    .	.	.	-3	-1	-5.7	.	3.7	i
CCc1sc(NC(=O)CN2CCOCC2)nc1-c1ccccc1
    0.67	1.4	-9	-5	-15	-1.8	-9	-1.1	i
O=C(c1ccc(Cn2c(=S)[nH]c3ccccc3c2=O)cc1)N1CCN(c2ccccn2)CC1
    0.73	-0.2	0	4	-4	1.0	4	2.9	i
CCCNC(=O)C(Cc1ccccc1)NC(=O)c1ccc(C(F)(F)F)cc1 (stereo unspecified)
    0.67	0.4	-5	1	10	-8.4	0	0.7	i
CCc1nc2c(cnn2-c2ccc(F)cc2)c(=O)n1-c1ccc(N2CCC(C)CC2)cc1
    0.75	1.6	-10	-2	-2	6.6	6	-4.0	i
CCCCc1ccc(S(=O)(=O)NC(=O)C2(C)CCN2C(=O)Cc2ccccc2)cc1 (stereo unspecified)
    .	.	.	-9	-7	1.7	.	3.8	i
CCCCOc1ccc(Cc2c(Cl)nc(SC)nc2N2CCOCC2)cc1
    0.68	-0.2	-6	.	.	.	0	0.6	.
S=C(Nc1ccccn1)Nc1ccccc1Cl
    0.68	0.4	0	-11	4	7.3	-7	2.1	i
O=C(COC(=O)c1cc(=O)c2ccccc2o1)NCc1ccccc1
    0.71	7.1	.	6	9	-0.5	1	1.3	i
O=C(N/N=C/c1ccccn1)c1cc(Br)ccc1O
    .	.	2	-8	-7	-2.0	7	1.4	i
CC1CCN(CCc2nc3cc(NC(=O)COc4ccc([N+](=O)[O-])cc4)ccc3n2C)CC1
    0.63	2.9	-13	0	2	-0.8	14	-0.7	i
NC(=S)Nc1cc(Cl)cc(Cl)c1
    0.69	0.7	.	-26	-23	-2.9	8	5.9	i
COc1ccc(C)cc1S(=O)(=O)N(CC(=O)Nc1cccc([N+](=O)[O-])c1)c1ccccc1
    0.7	-0.6	-7	.	.	.	-2	-0.8	i
CCOC(=O)c1sc(-c2ccc(OC)cc2)cc1NC(C)=O
    0.7	-443	.	.	.	.	-2	0.2	.
N#Cc1cc2c(nc1Cl)CCC2
    0.66	-2.7	3	6	-8	-0.1	-2	0.6	i
O=C(CCn1c(=O)oc2ccccc21)N1CCN(c2ccccc2Cl)CC1
    0.74	2.9	-7	.	.	.	-11	-3.4	.

Remaining list, next part.
Value order: Ecoli growth	UCH37 DUB inh	ALR inh	Ecoli rRNA inh	Ecoli rRNA inh OD600	Ecoli rRNA inh RFP	B2AR ag	HNF4A DNA FP	FGF22 binding
CCOC(=O)C1CCCN(C(=S)NC(=O)/C=C/c2ccc(F)cc2)C1 (stereo unspecified)
    0.69	3.0	7	2	7	-2.1	9	1.4	i
CCc1[nH]nc2c1C(C(C)C)C(C#N)=C(N)O2 (stereo unspecified)
    0.7	5.0	15	.	.	.	3	-0.7	.
O=C(Nc1nccs1)c1cn(-c2ccccc2)nc1-c1ccccc1
    0.75	1.4	-17	.	.	.	10	1.0	.
CCCN1C(=O)c2cc(C(=O)Nc3ccc(OC)c(OC)c3)ccc2C1Nc1ccc(OC)c(OC)c1 (stereo unspecified)
    0.73	1.4	-13	13	8	0.9	6	1.2	i
Nn1c(SCc2ccc(C(=O)O)cc2)nnc1-c1ccc(Cl)cc1Cl
    0.68	1.5	23	-9	-10	1.3	0	-0.2	i
O=C1NC[C@H](Cc2ccccc2)N(CC2CCN(CC3CCCC3)CC2)C1=O
    .	.	.	5	17	-3.1	8	-0.8	i
COc1ccc2nc(SCCN(C)C)[nH]c2c1
    0.68	0.2	-3	29	17	1.3	-4	-2.8	i
Cc1cc(C)c(NC(=O)COC(=O)CCn2c(C)csc2=O)c(C)c1
    0.67	4.2	-43	12	6	0.2	-4	-3.7	i
CCC(C)N(C(=O)CSc1nc(C)nc2ccccc12)C1CCS(=O)(=O)C1 (stereo unspecified)
    0.73	3.3	24	2	4	1.4	15	-1.9	i

Some of the compounds tested; rates above refer to the full screens.
